Assay outcomes (PubChem)
BJeLR lethal: kills HRASV12-expressing BJeLR cells. BJeLR (HRASV12) viability, CellTiter-Glo ATP luminescence, 48 h; reference of the scale not given here. inhibition, % (concentration not given with the values). 300,000 compounds, 0.17% hits;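 active means replicate mean above 50%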;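 further: 50 nL library stock added to about 25 µL; numbers are from one replicate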
Mtb hypoxia rep: reduces hypoxia-regulated biosensor signal in M. tuberculosis; M. tuberculosis hypoxia-regulated fluorescent reporter, fluorescence; 300,000 compounds, 0.1% hits; fluorescence inhibition, % (no concentration beside the values); AID 1159583;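 active means 35 to 45% if threefold the growth effect, above 45% if 1.5-fold the growth effect; inactive means the rest, general growth blockers included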;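 further: wells of about 50 µL received 100 nL stock; 0% = vehicle wells and 100% = reference inhibitor wells; whole bacteria with a GFP reporter of the hypoxia response; strong numbers were not always called active; many hits fall short of the cut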
PrP 5UTR inh: suppresses PrP 5' UTR mRNA reporter expression; cell-based PrP 5' UTR mRNA reporter, plate reader; inhibition, % (concentration not given with the values); 340,000 compounds, 0.35% hits; AID 488862;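 active means every replicate at 50% or more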;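 further: 0 = median of the neutral control wells; tested in H4 reporter cells; numbers are from one replicate; inactives centre near -14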
Autofluor counter: flagged as autofluorescent in microsphere protease counterscreen; compound autofluorescence counterscreen, microsphere flow cytometry; active compounds read high; fluorescence intensity (no concentration beside the values); 360,000 compounds, 3.1% hits; AID 624483;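 active means at least 3 SD above the mean of all compounds, about 16000 in these data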;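 further: 100 nL of 1 mM stock went into each well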
Sa ugtP lethal: compounds lethal to S. aureus RN4220 ugtP deletion mutant; OD600 growth, 16 h; some inactives read as strong as hits; growth inhibition, % (test concentration not listed); 330,000 compounds, 0.54% hits; AID 1259309;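 active means z-score under -3 and OD600 up to 0.15 on both plates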;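 further: plate controls were untreated wells for no effect and antibiotic for full effect; wells of about 80 µL received 100 nL stock; the first replicate is given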
RN4220 kill: S. aureus RN4220 growth inhibition | OD600, 16 h | 330,000 compounds, 0.33% hits | AID 1259311 | inhibition, % (no concentration beside the values);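 active means z-score of -3 or lower and OD600 up to 0.18 on both plates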;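 further: plate controls were untreated cells for no effect and reference antibiotic for full effect; stock transfer was 100 nL into about 80 µL; one replicate is shown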
Mtb hypoxia rep growth: recorded beside Mtb hypoxia rep, whose call it bears; growth inhibition, %; measured here: M. tuberculosis growth (absorbance);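 0% = vehicle and 100% = reference antibiotic; read after six days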
Active calls of the source: *; . = no result given.

[1] Cc1ccc(-c2nc(-c3cccnc3)sc2CC(=O)O)cc1
[2] CC(CNC(=O)CCS(=O)(=O)c1ccc2c(c1)oc(=O)n2C)c1ccccc1 (stereo not given)
[3] COC(=O)c1sc2nc(SCc3cccc(F)c3)n(N)c(=O)c2c1C
[4] CC(CC(=O)N1CCN(C=O)CC1)=NNC(=O)c1cccc([N+](=O)[O-])c1
[5] Cc1cc(C)nc(N2CCCC(C(=O)Nc3nc4ccc(S(C)(=O)=O)cc4s3)C2)n1 (stereo not given)
[6] CC1CN(C(=O)COC(=O)c2ccc(N(C)C)cc2)CC(C)O1 (stereo not given)

compound no.	1	2	3	4	5	6
BJeLR lethal	1	-2	-2	.	4	-2
Mtb hypoxia rep	16	10	7	13	-5	11
Mtb hypoxia rep growth	9	12	7	-5	4	-1
PrP 5UTR inh	-14	1	-42	.	-1	-36
Autofluor counter	4678	6240	9241	.	22009*	4321
Sa ugtP lethal	1	2	-10	4	-4	2
RN4220 kill	5.4	2.0	5.7	14	7.4	6.2

The list goes on, starting with the last 6 of the part before.
[1] Cc1ccc(-c2nc(-c3cccnc3)sc2CC(=O)O)cc1
[2] CC(CNC(=O)CCS(=O)(=O)c1ccc2c(c1)oc(=O)n2C)c1ccccc1 (stereo not given)
[3] COC(=O)c1sc2nc(SCc3cccc(F)c3)n(N)c(=O)c2c1C
[4] CC(CC(=O)N1CCN(C=O)CC1)=NNC(=O)c1cccc([N+](=O)[O-])c1
[5] Cc1cc(C)nc(N2CCCC(C(=O)Nc3nc4ccc(S(C)(=O)=O)cc4s3)C2)n1 (stereo not given)
[6] CC1CN(C(=O)COC(=O)c2ccc(N(C)C)cc2)CC(C)O1 (stereo not given)
[7] CCC(C)c1ccc(S(=O)(=O)N2CCN(C(C)CC(=O)O)CC2)cc1 (stereo not given)
[8] CCN1C(=O)C2C(c3ccc(C)cc3)N3C(=O)N(c4cccc(Cl)c4)C(=O)[C@@]3(Cc3ccccc3)C2C1=O (stereo not given in full)
[9] O=C(Nc1ccccc1N1CCOCC1)c1ccc(S(=O)(=O)NCc2ccco2)cc1
[10] Cc1nc2nc[nH]n2c(=O)c1NS(=O)(=O)c1ccc([N+](=O)[O-])cc1
[11] Cc1ccc(CC(=O)Nc2ncc([N+](=O)[O-])s2)cc1
[12] C/C(CC(=O)Nc1cc(C)ccn1)=N\NC(=O)c1ccccc1C

compound no.	1	2	3	4	5	6	7	8	9	10	11	12
BJeLR lethal	1	-2	-2	.	4	-2	-5	.	.	5	-1	10
Mtb hypoxia rep	16	10	7	13	-5	11	14	-3	-10	9	-6	.
Mtb hypoxia rep growth	9	12	7	-5	4	-1	3	-10	-2	4	2	.
PrP 5UTR inh	-14	1	-42	.	-1	-36	-6	.	-6	-19	-44	5
Autofluor counter	4678	6240	9241	.	22009*	4321	4862	.	3974	3637	4156	3714
Sa ugtP lethal	1	2	-10	4	-4	2	6	6	-6	2	-1	.
RN4220 kill	5.4	2.0	5.7	14	7.4	6.2	4.4	16	1.0	4.6	18	.

[13] Cc1ccc(NC2CCCN(C(=O)c3ccoc3C)C2)cc1C (stereo not given)
[14] C=CCN(CC=C)C(=S)NC(=O)c1ccc(-c2ccccc2)cc1
[15] O=S(=O)(NC1CCCCC1)c1ccc(Br)cc1
[16] CCCn1c(C(C)Nc2nc(-c3ccc(C)cc3)cs2)nc2cc(Cl)c(N3CCCCC3)cc21 (stereo not given)
[17] CCOC(=O)c1c(CN(C)C)n(-c2ccc(C)cc2)c2cc(Br)c(O)cc12
[18] O=C1c2cccnc2C(=O)N1Cc1ccc(S(=O)(=O)N2CCOc3ccc(Cl)cc32)cc1

compound no.	13	14	15	16	17	18
BJeLR lethal	2	-8	-5	-1	-1	-4
Mtb hypoxia rep	5	2	.	3	5	1
Mtb hypoxia rep growth	0	19	.	6	8	8
PrP 5UTR inh	-16	3	-19	-16	-49	-12
Autofluor counter	5561	5467	2442	6254	2416	5863
Sa ugtP lethal	6	7	0	-21	12	0
RN4220 kill	0.0	30	2.5	5.8	5.4	0.8

[19] CCC(C)(C)NC(=O)C1CC(=O)N(CCc2ccc(F)cc2)C1 (stereo not given)
[20] Cc1ccc(C)c(N(C(=O)CNC(=O)c2ccco2)C(C(=O)NC2CCCCC2)c2ccncc2)c1 (stereo not given)
[21] Cc1ccc(NC(=S)NCc2ccc3c(c2)OCO3)c(C)c1
[22] COc1ccc(N(CC(=O)NC2CCCCC2)C(=O)CNC(=O)c2ccco2)c(OC)c1
[23] N#CCCN(C(=O)COC(=O)C1=COCCO1)c1ccc(F)cc1
[24] COC(=O)c1sccc1NC(=O)CSc1ccccc1NS(=O)(=O)c1ccc(Br)cc1

compound no.	19	20	21	22	23	24
BJeLR lethal	-1	7	-5	10	-1	-7
Mtb hypoxia rep	9	5	.	6	11	10
Mtb hypoxia rep growth	12	-5	.	9	0	-1
PrP 5UTR inh	-3	-3	-14	-27	6	-20
Autofluor counter	.	3110	4067	9223	6028	3471
Sa ugtP lethal	1	3	4	3	5	5
RN4220 kill	1.4	2.1	-0.2	4.7	2.5	16

Entries of single compounds, quoted from the list.
N#CCCN(C(=O)COC(=O)C1=COCCO1)c1ccc(F)cc1 as listed: BJeLR lethal: -1; Mtb hypoxia rep: 11; Mtb hypoxia rep growth: 0; PrP 5UTR inh: 6; Autofluor counter: 6028; Sa ugtP lethal: 5; RN4220 kill: 2.5
Cc1ccc(C)c(N(C(=O)CNC(=O)c2ccco2)C(C(=O)NC2CCCCC2)c2ccncc2)c1 (stereo not given) as listed: BJeLR lethal: 7; Mtb hypoxia rep: 5; Mtb hypoxia rep growth: -5; PrP 5UTR inh: -3; Autofluor counter: 3110; Sa ugtP lethal: 3; RN4220 kill: 2.1

The listing picks up, repeating the 2 entries before the break.
[23] N#CCCN(C(=O)COC(=O)C1=COCCO1)c1ccc(F)cc1
[24] COC(=O)c1sccc1NC(=O)CSc1ccccc1NS(=O)(=O)c1ccc(Br)cc1
[25] COc1ccc(C)cc1S(=O)(=O)N(CC(=O)O)c1ccccc1
[26] CC12CCC(C(=O)NCCc3ccccc3)(OC1=O)C2(C)C (stereo not given)
[27] Cc1nc2ccccc2nc(C)c1=NOCc1ccc(C#N)cc1
[28] COc1cc(/C=N/n2nnnc2N)ccc1OCC#N
[29] CNC(=O)c1cccnc1Nc1cccc(C(F)(F)F)c1
[30] O=C(Cc1cccs1)Nc1nc2c(s1)CCCC2

compound no.	23	24	25	26	27	28	29	30
BJeLR lethal	-1	-7	1	2	-5	-4	4	25
Mtb hypoxia rep	11	10	13	5	-9	.	-1	1
Mtb hypoxia rep growth	0	-1	-21	1	5	.	5	-6
PrP 5UTR inh	6	-20	-15	-30	-23	-11	-16	-48
Autofluor counter	6028	3471	3373	2201	1935	4306	2077	17280*
Sa ugtP lethal	5	5	3	-1	-5	.	-7	4
RN4220 kill	2.5	16	9.8	3.1	2.0	.	-1.8	1.4

Other results follow.
Values run as follows: BJeLR lethal | Mtb hypoxia rep | Mtb hypoxia rep growth | PrP 5UTR inh | Autofluor counter | Sa ugtP lethal | RN4220 kill
#31 Cc1ccc(C2C3C(=O)N(C)C(=O)C3[C@]3(Cc4ccccc4)C(=O)N(Cc4ccccc4)CC(=O)N23)o1 (stereo not given in full)
    . | 0 | 0 | . | . | 1 | -0.7
#32 CCCC1/C(=N/O)CC(c2ccccc2)NC1c1ccccc1 (stereo not given)
    4 | . | . | -21 | 4191 | . | .
#33 CCn1c(SCC(=O)NCc2ccc(C)cc2)nnc1-c1ccncc1
    5 | -3 | 1 | -35 | 9324 | -1 | -3.6
#34 OCc1nn2c(c1Br)NC(c1ccccc1)CC2C(F)(F)F (stereo not given)
    -2 | . | . | 5 | 2621 | 5 | 28
#35 CC1CN(C(C)CO)C(=O)c2cccc(NS(=O)(=O)c3cccs3)c2OC1CN(C)Cc1ccncc1 (stereo not given)
    . | 5 | 4 | . | . | -10 | 2.0
#36 COc1ccccc1CN1CCCC(CNC(=O)c2cccc3ccccc23)C1 (stereo not given)
    7 | 5 | 5 | -14 | 4561 | 7 | 1.5
#37 COc1cccc(C(=O)NCc2ccco2)c1OC
    -5 | -5 | 15 | 1 | 4145 | -4 | -0.8
#38 CC(=O)Nc1ccc(NC(=O)Oc2ccccc2)cc1
    3 | 12 | -3 | -39 | 7294 | 3 | 1.0
#39 Cn1c(=O)c2c(ncn2CC(=O)Nc2ccc3c(c2)OCO3)n(C)c1=O
    0 | -3 | 10 | 3 | 5512 | 0 | 2.4
#40 O=C(CN1C(=O)c2cccnc2Oc2ccc(Cl)cc21)NCCCc1ccccc1
    -11 | 9 | -3 | -15 | 7724 | 3 | -1.7
#41 OC(CN1CCN(c2cccc(Cl)c2)CC1)C(c1ccccc1)c1ccccc1 (stereo not given)
    . | -6 | 4 | -10 | 4132 | -18 | 0.8
#42 CC(C)(C)OC(=O)N1CCC(C(=O)N[C@H](Cc2ccccc2)C(=O)O)CC1
    -13 | . | . | -22 | 3389 | . | .
#43 CCCc1ccc(-c2ccc(F)c(N)c2)nc1
    5 | -1 | 10 | 59* | 11696 | 2 | 14
#44 CC1CCCCN1CCNc1nc(=S)[nH]c2ccccc12 (stereo not given)
    -2 | 2 | 7 | -1 | 12073 | 6 | 2.1
#45 CC1CCC(C(=O)NC(C(=O)N2CCC(N3CCCCC3)CC2)C(C)C)CC1 (stereo not given)
    5 | -6 | 9 | -13 | 11447 | -4 | 1.9
#46 Cc1cc(NCCc2ccc(Cl)cc2)n2ncnc2n1
    1 | 2 | 7 | -43 | 2013 | 5 | 2.4
#47 CCN1CCc2c(C#N)c(NCc3ccccc3)nc(N(CC)CC)c2C1
    3 | 18 | 21 | -30 | 10675 | -2 | 5.9
#48 CCOc1ccc2nc(SCC(=O)N3CCCc4ccccc43)sc2c1
    6 | 5 | 4 | -10 | 21324* | 85* | 5.5
#49 CC(O)[C@H](NC(=O)C1(c2ccccc2)CCN(C(=O)OC(C)(C)C)CC1)C(=O)O (stereo not given in full)
    -3 | -4 | 0 | -4 | 3814 | 3 | 3.3
#50 COc1ccc2c(c1)OCC1C2N2C(=O)CN(CCc3c[nH]c4ccccc34)C(=O)[C@@]2(C)C1c1ccccc1 (stereo not given in full)
    . | -1 | 9 | . | . | -25 | 0.1
#51 COc1ccccc1/C=N/NC(=O)c1[nH]c(C)c(C(=O)N/N=C/c2ccccc2OC)c1C
    -12 | . | . | -6 | 2074 | . | .
#52 CC(C)N1C(=S)SC(C)(C)C1n1oc(=O)n(-c2ccc(Cl)c(Cl)c2)c1=O (stereo not given)
    -7 | 22 | 13 | -9 | 5016 | -34 | -4.1
#53 CCO[C@H]1c2c(ccc3ccc(=O)oc23)OC(C)(C)[C@@H]1O
    . | 4 | -3 | -21 | 3029 | 2 | -5.3
#54 COc1ccccc1CNS(=O)(=O)c1ccc2[nH]cc(C(=O)O)c(=O)c2c1
    4 | . | . | 13 | 2830 | -1 | 2.7
#55 COC(=O)C(NC(=O)Nc1ccccc1OC)C(C)C (stereo not given)
    0 | . | . | -26 | 4728 | 4 | -0.7
#56 Oc1c(C=Nc2cccnc2)sc2ccccc12
    15 | . | . | -8 | 3207 | 2 | 5.7
#57 CCOc1ccc2nc(NCCNC(=O)CC)c(C#N)cc2c1
    -4 | 8 | 7 | 7 | 3497 | 6 | 4.6
#58 CCN(Cc1cc(=O)oc2cc(C)ccc12)c1ccccc1
    10 | 5 | -1 | -19 | 3045 | 12 | -2.8
#59 O=C(CN1c2ccccc2Sc2ccccc21)NNC(=O)Nc1ccc(Cl)cc1
    -1 | 2 | 4 | -7 | 3778 | 68 | 60
#60 CN(C)CCN(C(=O)C1CCCCC1)c1nc2cc3c(cc2s1)OCO3
    -3 | -1 | 8 | -8 | 6923 | 0 | -1.8

Taken from above.
For PrP 5UTR inh, cpd 58 is listed with -19
For BJeLR lethal, cpd 54 is listed with 4

(more compounds)
Values run as follows: BJeLR lethal | Mtb hypoxia rep | Mtb hypoxia rep growth | PrP 5UTR inh | Autofluor counter | Sa ugtP lethal | RN4220 kill
#61 Cc1cc(=O)oc(C)c1C(=O)NCc1ccco1
    -3 | 5 | 1 | -9 | 2437 | 4 | 1.2
#62 O=C(CSc1ncn[nH]1)Nc1ccc(Br)cc1Br
    . | 10 | 6 | -5 | 6380 | 3 | 2.4
#63 COCCCNC(=O)c1cc(Nc2ccc(OC)cc2OC)nc2ccccc12
    0 | 6 | 5 | -13 | 3604 | 0 | 2.9
#64 NC(=O)CCN1CCN(CCOC2Cc3cc(Cl)ccc3Sc3ccccc32)CC1 (stereo not given)
    1 | 15 | 9 | -23 | 2356 | 12 | 7.4
#65 COc1ccc(/C=C2\SC(=S)N(CCCC(=O)N3CCOCC3)C2=O)cc1OC
    5 | 8 | 0 | -4 | 3166 | 19 | 4.7
